# Screens from PubChem.
# Vaccinia inh = blocks a specific stage of Vaccinia orthopoxvirus infection, primary screen, cell-based, single point; Vaccinia-infected cells, mCherry/Venus stage reporter fluorescence; hits give low values; some inactives read as strong as hits; activity change (mCherry), % (no concentration beside the values); hit rate 0.01% among 89,000;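 active = mCherry past -33% and 40 or more points under the early reporter, replicates agreeing; inconclusive = past -33% without that gap or agreement; tested in A549 cells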;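 note: scaled between vehicle wells and reference inhibitor wells; 23 nL library stock went into each well; one replicate is shown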
# Vaccinia inh Venus = recorded beside Vaccinia inh, whose call it bears; activity change (Venus), %; measured here: Venus reporter, other viral stage;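 negative = less Venus signal; first of two replicates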
# * = called active by the depositor; ? = inconclusive; . = not tested or not shown. The list is partial (hit frequency here may not be typical).
SMILES,Vaccinia inh,Vaccinia inh Venus
COc1ccc(-c2ccc3c(c2)O[C@@H](CN(C)C(=O)c2ccccc2F)[C@H](C)CN([C@H](C)CO)S3(=O)=O)cc1,?,.
CCCN(C)C[C@H]1Oc2ncc(-c3cccc(C#N)c3)cc2C(=O)N([C@@H](C)CO)C[C@@H]1C,6,8
O=C(Nc1ccc(F)cc1)N[C@@H]1CC[C@H](CCn2cc(-c3ccccc3F)nn2)O[C@H]1CO,-3,-4
CC(=O)NC[C@H]1[C@H](c2ccc(-c3cccnc3)cc2)[C@H](CO)N1C(=O)C1CC1,8,5
COc1ccccc1-c1cnc2c(c1)C(=O)N([C@H](C)CO)C[C@@H](C)[C@H](CN(C)Cc1cccc(F)c1)O2,?,.
C[C@H]1CN([C@@H](C)CO)C(=O)c2cccc(NC(=O)Nc3ccccc3)c2O[C@@H]1CN(C)C(=O)Nc1ccc(C(F)(F)F)cc1,-15,-2
CC(C)CC#Cc1ccc([C@@H]2[C@H](CO)N3C(=O)CN(C(=O)NC4CCCC4)C[C@@H]23)cc1,-18,-11
C[C@H](CO)N1C[C@H](C)[C@@H](CN(C)CC2CCCCC2)Oc2ccc(NC(=O)CCCN(C)C)cc2CC1=O,3,0
CO[C@H]1CN(C)C(=O)c2ccc(NC(=O)c3ccc(F)cc3)cc2OC[C@@H](C)N(C(=O)c2ccc(F)cc2)C[C@H]1C,-13,-4
CCCNC(=O)[C@@H]1[C@@H](CO)[C@@H]2Cn3c(cccc3=O)[C@H]1N2CCC(F)(F)F,18,7
CC(C)NC(=O)Nc1ccc2c(c1)C(=O)N([C@@H](C)CO)C[C@H](C)[C@@H](CN(C)S(=O)(=O)c1cn(C)cn1)OCCCC[C@H](C)O2,12,11
C[C@@H]1CN([C@H](C)CO)C(=O)c2cc(NS(=O)(=O)c3ccccc3)ccc2O[C@@H](C)CCCCO[C@H]1CN(C)Cc1ccc(C(F)(F)F)cc1,?,.
N#C[C@@H]1[C@@H](c2ccccc2-c2cccc(F)c2)[C@@H](CO)N1C(=O)C1CC1,-4,-4
COCC(=O)N(C)C[C@H]1Oc2ncc(C#Cc3ccc(F)cc3)cc2C(=O)N([C@H](C)CO)C[C@@H]1C,27,22
C[C@@H]1CCCCO[C@@H](CN(C)C)[C@H](C)CN([C@@H](C)CO)C(=O)c2cc(NC(=O)Nc3cccc4ccccc34)ccc2O1,-4,2
C[C@H](CO)N1C[C@H](C)[C@@H](CN(C)C(=O)C2CC2)Oc2cc(-c3ccccc3F)ccc2S1(=O)=O,1,0
CN1c2ccc(-c3ccccc3)cc2[C@H]2[C@H](CCN2C(=O)c2ccccc2)[C@@H]1CO,-33,-26
CCC(=O)N[C@@H]1CC[C@H](CC(=O)NCc2ccc(OC)cc2)O[C@@H]1CO,10,12
CC(C)NC(=O)N(C)C[C@@H]1OCCCC[C@H](C)Oc2ccc(NC(=O)CCC(F)(F)F)cc2C(=O)N([C@@H](C)CO)C[C@@H]1C,11,-2
COc1ccccc1CNC(=O)C[C@H]1CC[C@H](NC(C)=O)[C@@H](CO)O1,10,13

# Ordered by molecular weight (low to high): some entries from above
SMILES,Vaccinia inh,Vaccinia inh Venus
N#C[C@@H]1[C@@H](c2ccccc2-c2cccc(F)c2)[C@@H](CO)N1C(=O)C1CC1,-4,-4
CCC(=O)N[C@@H]1CC[C@H](CC(=O)NCc2ccc(OC)cc2)O[C@@H]1CO,10,12
CCCNC(=O)[C@@H]1[C@@H](CO)[C@@H]2Cn3c(cccc3=O)[C@H]1N2CCC(F)(F)F,18,7
CN1c2ccc(-c3ccccc3)cc2[C@H]2[C@H](CCN2C(=O)c2ccccc2)[C@@H]1CO,-33,-26
CC(C)CC#Cc1ccc([C@@H]2[C@H](CO)N3C(=O)CN(C(=O)NC4CCCC4)C[C@@H]23)cc1,-18,-11
C[C@H](CO)N1C[C@H](C)[C@@H](CN(C)C(=O)C2CC2)Oc2cc(-c3ccccc3F)ccc2S1(=O)=O,1,0
C[C@H](CO)N1C[C@H](C)[C@@H](CN(C)CC2CCCCC2)Oc2ccc(NC(=O)CCCN(C)C)cc2CC1=O,3,0
CO[C@H]1CN(C)C(=O)c2ccc(NC(=O)c3ccc(F)cc3)cc2OC[C@@H](C)N(C(=O)c2ccc(F)cc2)C[C@H]1C,-13,-4
C[C@@H]1CCCCO[C@@H](CN(C)C)[C@H](C)CN([C@@H](C)CO)C(=O)c2cc(NC(=O)Nc3cccc4ccccc34)ccc2O1,-4,2
CC(C)NC(=O)N(C)C[C@@H]1OCCCC[C@H](C)Oc2ccc(NC(=O)CCC(F)(F)F)cc2C(=O)N([C@@H](C)CO)C[C@@H]1C,11,-2
CC(C)NC(=O)Nc1ccc2c(c1)C(=O)N([C@@H](C)CO)C[C@H](C)[C@@H](CN(C)S(=O)(=O)c1cn(C)cn1)OCCCC[C@H](C)O2,12,11

# Additional compounds.
SMILES,Vaccinia inh,Vaccinia inh Venus
CCCN1C[C@@H](C)[C@@H](OC)CN(C)C(=O)c2cc(NC(=O)c3cccc(F)c3)ccc2OC[C@@H]1C,-7,-13
O=C1CN(Cc2ccc(F)cc2)C[C@H]2[C@H](c3ccc(-c4ccccc4F)cc3)[C@@H](CO)N12,1,9
CC(=O)N(C)C[C@@H]1Oc2cc(C#CC(C)(C)O)ccc2S(=O)(=O)N([C@@H](C)CO)C[C@@H]1C,39,21
C[C@H](CO)N1C[C@H](C)[C@@H](CN(C)C(=O)Nc2ccc(F)cc2)OCc2ccccc2-c2c(n(C)c3ccccc23)C1=O,?,.
CC(C)NC(=O)Nc1ccc2c(c1)CC(=O)N([C@H](C)CO)C[C@@H](C)[C@H](CN(C)S(=O)(=O)c1cccs1)O2,24,15
CNC[C@@H]1Oc2c(NC(=O)NC(C)C)cccc2C(=O)N([C@@H](C)CO)C[C@@H]1C,10,4
C/C=C/c1ccc(C2[C@H]3CNC[C@@H]2N3CC2CCOCC2)cc1 (stereo partly specified),9,1
C[C@H]1CN([C@@H](C)CO)C(=O)c2cccc(NC(=O)Nc3ccccc3)c2O[C@H]1CN(C)S(=O)(=O)c1ccc(Cl)cc1,?,.
CC(C)CC#Cc1cnc2c(c1)C(=O)N([C@@H](C)CO)C[C@@H](C)[C@@H](CN(C)C(=O)c1ccc3c(c1)OCO3)O2,-21,-16
C[C@H]1CN([C@@H](C)CO)C(=O)c2cc(C#CCN(C)C)cnc2O[C@@H]1CN(C)C(=O)c1cnccn1,9,6
CCC(=O)N(C)C[C@H]1Oc2ncc(C#CCc3ccccc3)cc2C(=O)N([C@H](C)CO)C[C@H]1C,-2,1
CCCC#Cc1ccc([C@@H]2[C@@H](CO)N3C(=O)CN(C(=O)Nc4ccccc4F)C[C@@H]23)cc1,2,-10
COc1cccc(C(=O)Nc2ccc3c(c2)C(=O)N(C)[C@H]2CC[C@@H](CC(=O)NCC4CC4)O[C@@H]2CO3)c1,7,8
O=C(Nc1ccccc1)[C@H]1[C@H](CO)[C@H]2Cn3c(cccc3=O)[C@H]2N1C(=O)C1CCCC1,26,24
O=C1C[C@@](C(=O)NCC(F)(F)F)(c2ccc([N+](=O)[O-])cc2)[C@@H](c2ccc(CO)cc2I)N1C1CCCCC1,?,.
C[C@@H]1CN([C@@H](C)CO)C(=O)c2cc(C3=CCCCC3)cnc2O[C@@H]1CN(C)C(=O)CN1CCOCC1,11,5
COc1ccc(S(=O)(=O)N(C)C[C@H]2Oc3ccc(NC(=O)Nc4ccccc4)cc3CC(=O)N([C@@H](C)CO)C[C@H]2C)cc1,-15,-9
O=C(C[C@@H]1C=C[C@@H](NC(=O)c2ccc(F)cc2)[C@H](CO)O1)NCc1ccncn1,-8,8
CCC(=O)Nc1ccc2c(c1)OC[C@H](C)N(Cc1ccncc1)C[C@@H](C)[C@@H](OC)CN(C)C2=O,-1,-1
COc1ccc(NC(=O)N(C)C[C@H]2Oc3ccc(NC(=O)Nc4ccc(F)cc4)cc3CC(=O)N([C@@H](C)CO)C[C@@H]2C)cc1,7,6
CC(C)C#Cc1ccc([C@H]2[C@@H](C#N)N(C(=O)C3CCC3)[C@@H]2CO)cc1,-18,-14
Cc1noc(C)c1NC(=O)N(C)C[C@H]1Oc2c(NC(=O)c3nc4ccccc4s3)cccc2C(=O)N([C@@H](C)CO)C[C@@H]1C,7,4
O=C(C[C@H]1CC[C@@H]2[C@H](COC[C@H](O)CN2C(=O)C2CCCC2)O1)NCc1ccncc1,0,-2
C[C@@H]1CCCCO[C@@H](CN(C)S(=O)(=O)c2cccs2)[C@@H](C)CN([C@H](C)CO)C(=O)c2cc(NS(=O)(=O)c3cn(C)cn3)ccc2O1,6,1
CCCNC(=O)N(C)C[C@H]1Oc2cc(-c3ccccc3)ccc2S(=O)(=O)N([C@@H](C)CO)C[C@@H]1C,-21,-18
COCC#Cc1ccc2c(c1)O[C@@H](CN(C)Cc1cccnc1)[C@@H](C)CN([C@H](C)CO)S2(=O)=O,20,1
COc1ccc2c3c([nH]c2c1)[C@@H](CO)N(C(=O)Nc1ccc(F)cc1)CC31CN(Cc2cc(F)ccc2F)C1,-34,-32
COc1ccc(-c2ccc3n(c2=O)C[C@@H]2[C@@H](CO)[C@H](C(=O)N4CCCCC4)[C@H]3N2C)cc1,-4,3
CC(C)NC(=O)Nc1ccc2c(c1)C(=O)N([C@H](C)CO)C[C@@H](C)[C@@H](CN(C)S(=O)(=O)c1ccc(F)cc1)OCCCC[C@H](C)O2,6,8
O=C(C1CCCCC1)N1CC(=O)N2[C@@H](CO)[C@H](c3ccc(-c4cccnc4)cc3)[C@@H]2C1,0,0
O=C(C[C@H]1C=C[C@@H](NC(=O)Cc2ccccn2)[C@H](CO)O1)NCCCN1CCOCC1,-8,1
C[C@@H]1CCCCO[C@@H](CN(C)CC2CC2)[C@@H](C)CN([C@H](C)CO)C(=O)c2cc(NC(=O)Cc3ccccc3)ccc2O1,7,-9
CO[C@H]1CN(C)C(=O)c2ccc(NS(C)(=O)=O)cc2OC[C@H](C)N(C(=O)CC2CC2)C[C@@H]1C,19,9
COc1ccc(S(=O)(=O)N(C)C[C@H]2OCc3ccccc3-c3c(n(C)c4ccccc34)C(=O)N([C@@H](C)CO)C[C@H]2C)cc1,-29,-26
C[C@H](O)C#Cc1cnc2c(c1)C(=O)N([C@H](C)CO)C[C@@H](C)[C@H](CN(C)CC1CCCC1)O2,9,15
C[C@H]1CN([C@@H](C)CO)C(=O)c2cc(NS(=O)(=O)c3cn(C)cn3)ccc2O[C@H]1CN(C)Cc1ccc(Oc2ccccc2)cc1,27,15
C[C@@H]1CN([C@@H](C)CO)C(=O)c2cc(N(C)C)ccc2O[C@H]1CN(C)S(=O)(=O)c1ccc(F)cc1,5,11
C[C@H]1CN([C@@H](C)CO)C(=O)CCCn2cc(nn2)CO[C@H]1CN(C)S(=O)(=O)c1cccs1,15,24
CC(C)CC#Cc1ccc2c(c1)O[C@H](CN(C)S(=O)(=O)c1ccc(F)cc1)[C@H](C)CN([C@H](C)CO)S2(=O)=O,?,.
C[C@@H]1CN([C@@H](C)CO)S(=O)(=O)c2ccc(-c3ccccc3F)cc2O[C@@H]1CN(C)S(C)(=O)=O,-11,-12
CCCNC(=O)c1cc2c(c(-c3cccc(-c4ccc(C#N)cc4)c3)n1)[C@H](CCO)N(C(=O)CC)C2,-5,-3
O=C(NCC[C@H]1CC[C@@H](NS(=O)(=O)c2ccc(Cl)cc2)[C@@H](CO)O1)c1ccc2c(c1)OCO2,-25,-20
CO[C@H]1CN(C)C(=O)c2ccc(NS(=O)(=O)c3ccc(-c4ccccc4)cc3)cc2OC[C@@H](C)NC[C@H]1C,-1,-4
C[C@H](NC(=O)C[C@@H]1C=C[C@H](NS(=O)(=O)c2cccc(F)c2)[C@H](CO)O1)c1ccccc1,13,11
C[C@@H]1CN([C@@H](C)CO)C(=O)c2c(c3ccccc3n2C)-c2ccccc2CO[C@H]1CN(C)Cc1cccc2c1OCCCO2,?,.
C[C@@H]1CN([C@@H](C)CO)C(=O)Cc2cc(NS(=O)(=O)c3ccccc3)ccc2O[C@H]1CN(C)CC1CCCCC1,?,.
C[C@@H]1CN([C@H](C)CO)C(=O)c2cccc(NS(=O)(=O)c3cn(C)cn3)c2O[C@@H]1CN(C)CC1CC1,8,-4
CCCNC(=O)N(C)C[C@H]1Oc2cc(-c3cccnc3)ccc2S(=O)(=O)N([C@@H](C)CO)C[C@H]1C,14,3
CCC(=O)Nc1ccc2c(c1)C(=O)N(C)[C@H]1CC[C@@H](CC(=O)NC3Cc4ccccc4C3)O[C@H]1CO2,-15,-11
O=C(c1cccc(F)c1)N1CCCCN2[C@H](C1)[C@@H](c1ccc(-c3cccnc3)cc1)[C@@H]2CO,6,-11

# (further entries)
SMILES,Vaccinia inh,Vaccinia inh Venus
CC(=O)N1CC(=O)N2[C@H](CO)[C@@H](c3ccc(C#Cc4cccnc4)cc3)[C@@H]2C1,13,9
N#C[C@@H]1[C@@H](c2ccc(C#CC3(O)CCCC3)cc2)[C@@H](CO)N1C(=O)C1CCCCC1,-12,-5
Cc1noc(C)c1S(=O)(=O)Nc1ccc2c(c1)C(=O)N([C@@H](C)CO)C[C@@H](C)[C@@H](CN(C)S(=O)(=O)c1cn(C)cn1)OCCCC[C@H](C)O2,27,6
COc1ccc(NC(=O)N2C[C@H]3[C@@H](c4ccccc42)[C@@H](CO)N3C(=O)C2CCCC2)cc1,-3,9
Cc1noc(C)c1NC(=O)Nc1ccc2c(c1)C(=O)N([C@@H](C)CO)C[C@H](C)[C@H](CN(C)C(=O)Nc1ccc(C(F)(F)F)cc1)OCCCC[C@H](C)O2,2,8
COCC(=O)N1[C@H](CO)[C@@H](c2ccccc2-c2ccccc2)[C@@H]1C#N,10,8
Cc1noc(C)c1NC(=O)N(C)C[C@H]1Oc2ccc(NS(=O)(=O)c3ccc(F)cc3)cc2C(=O)N([C@@H](C)CO)C[C@@H]1C,21,2
O=C(C[C@H]1C=C[C@H](NC(=O)C2CCOCC2)[C@H](CO)O1)NCC1CC1,1,19
CCCN(C)C[C@@H]1OCc2cnnn2CCCC(=O)N([C@H](C)CO)C[C@H]1C,7,10
CN(C)C(=O)c1cccc(-c2ccc3c(c2)[C@@H]2[C@@H](CCN2C(=O)c2ccccc2F)[C@H](CO)N3)c1,-17,-16
